KCNQ2 pot = KCNQ2 (rat) channel potentiation. O88943. CHO-K1 KCNQ2, FluxOR thallium flux fluorescence; hits give high values. B-score at 10 µM. 0.54% of 310,000 active;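 active = fluorescence ratio B-score at least 3 SD of library B-scores, with initial fluorescence B-score within 3 SD, cut at about 5.3 in these data; same plate scores as AID 2156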;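 also: B-score of peak minus minimum over baseline fluorescence ratio after K+ and Tl+ stimulus; positive B-score means potentiation of KCNQ2 with more thallium influx and brighter signal; only the inactives scoring about 0 or higher are listed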
Target sequence (O88943 whole entry, looked up): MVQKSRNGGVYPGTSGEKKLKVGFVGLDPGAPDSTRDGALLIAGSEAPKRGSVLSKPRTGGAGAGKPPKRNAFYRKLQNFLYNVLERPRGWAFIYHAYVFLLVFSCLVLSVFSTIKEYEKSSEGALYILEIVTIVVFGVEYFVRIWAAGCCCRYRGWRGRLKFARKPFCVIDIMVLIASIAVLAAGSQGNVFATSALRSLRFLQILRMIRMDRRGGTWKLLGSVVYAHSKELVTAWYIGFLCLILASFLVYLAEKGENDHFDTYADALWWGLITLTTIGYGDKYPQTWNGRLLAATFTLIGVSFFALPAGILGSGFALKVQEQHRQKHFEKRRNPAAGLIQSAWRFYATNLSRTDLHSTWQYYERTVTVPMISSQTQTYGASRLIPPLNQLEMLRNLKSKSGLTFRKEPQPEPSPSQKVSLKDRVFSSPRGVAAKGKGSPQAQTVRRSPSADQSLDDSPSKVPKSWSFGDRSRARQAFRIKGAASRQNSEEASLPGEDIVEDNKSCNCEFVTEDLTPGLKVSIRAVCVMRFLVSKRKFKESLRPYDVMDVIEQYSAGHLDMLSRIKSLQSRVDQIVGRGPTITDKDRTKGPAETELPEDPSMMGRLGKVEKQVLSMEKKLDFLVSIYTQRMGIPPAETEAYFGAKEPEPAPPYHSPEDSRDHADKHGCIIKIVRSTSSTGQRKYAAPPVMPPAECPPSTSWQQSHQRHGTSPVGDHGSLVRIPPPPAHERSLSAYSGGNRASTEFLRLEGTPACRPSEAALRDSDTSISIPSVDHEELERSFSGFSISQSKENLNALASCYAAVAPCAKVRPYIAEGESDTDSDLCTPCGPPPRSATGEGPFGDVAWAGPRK
KCNQ2 pot baseline = also measured in KCNQ2 pot; calls as there; B-score; compound at 10 µM; measured here: initial fluorescence intensity artifact check;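 brightness before thallium and not channel activity; 0 = typical well and far values either way flag optical interference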
* hit, by the source's call. Some of the compounds tested (hit frequency here may not be typical).

item	KCNQ2 pot	KCNQ2 pot baseline	mol
1	3.15	-1.05	CC(=O)Nc1ccc(S(=O)(=O)N(C)CC(=O)N/N=C/c2ccc(C(=O)O)cc2)cc1
2	2.26	-1.39	CC(C)(C)C(=O)Oc1cccc(Nc2ncnc3ccccc23)c1
3	0.45	2.32	O=C(Cc1ccc(Cl)c(Cl)c1)NNC(=S)NCC1CCCO1 (configuration not stated)
4	0.37	-0.19	Cc1c(Cl)cccc1NC(=O)CCC(=O)N/N=C/c1ccc[nH]1
5	0.58	-0.2	Cc1cc(C)n2nc(SCC(=O)N(C)C)nc2n1
6	0.06	1.87	Cc1n[nH]c(C)c1S(=O)(=O)N1CCc2ccccc2C1
7	0.27	0.57	CC(C)(C)C(=O)COC(=O)c1cccc(NC(=O)c2ccco2)c1
8	1.14	0.8	O=C(Cc1ccc([N+](=O)[O-])cc1)N/N=C/c1cccs1
9	0.9	-1.56	CCOc1ccc2[nH]c(=O)c(CN(CCO)C(=O)CC)cc2c1
10	0.24	0.04	O=C(c1ccccc1)C(Cn1cncn1)C(Sc1ccccc1)c1ccccc1 (configuration not stated)
11	1.06	0.81	COc1ccc(NC(=S)NC(NC(=O)c2cccc(Cl)c2)C(Cl)(Cl)Cl)c([N+](=O)[O-])c1 (configuration not stated)
12	0.02	1.96	Cc1sc2ncn(CC(=O)NCCCC(=O)NCc3ccc(F)cc3)c(=O)c2c1C
13	0.46	3.1	COc1cccc(CNC(=O)N2CCN(c3ccccc3Cl)CC2)c1
14	0.8	0.37	N#CCCN(C(=O)c1ccc2c(=O)n3c(nc2c1)CCCCC3)c1ccccc1
15	0.71	-0.32	CCOC(=O)c1c(C)[nH]c(N=Nc2ccc(C)cc2C)c1C
16	0.01	0.44	CCc1ccccc1NC(=O)CCc1nc(-c2ccc(C)cc2)no1
17	0.11	1.17	CC(=O)NCCn1c(SCC(=O)NCCc2ccc(S(N)(=O)=O)cc2)nc2ccccc2c1=O
18	0.18	-1.31	C=CCNC(=O)/C(C#N)=C/c1cn(-c2ccccc2)nc1-c1ccc(OC)c([N+](=O)[O-])c1
19	0.33	-0.03	C=CCn1c(-c2ccoc2)n[nH]c1=S
20	0.64	0.87	Cc1cccc(-c2nnc(SCC(=O)NC3CC3)n2C)c1
21	0.03	-1.66	COc1ccc(OCCCn2c(=O)oc3ccccc32)cc1
22	0.11	-2.13	COc1ccc(-c2cc(O)cc(O)c2)cc1
23	0.02	0.03	Cc1cccc(NC(=S)NCC23C=CC(O2)C2C(=O)N(c4ccc(Cl)cc4)C(=O)C23)c1 (configuration not stated)
24	1.43	0.39	CC1(C)COC(c2cc([N+](=O)[O-])ccc2Cl)=N1
25	0.97	-3.66	COc1ccc(-c2noc(CCC(=O)Nc3cccnc3)n2)cc1
26	20.2*	0.99*	Cc1cc(C)c(NC(=O)CS)c(Cl)c1
27	0.03	1.77	Cc1oc(-c2cccs2)nc1CS(=O)CC(=O)NCCCOC(C)C (configuration not stated)
28	0.03	-0.12	CCCN1C2CCCC1CC(NC(=O)c1cccc(OC)c1)C2 (configuration not stated)
29	0.54	0.01	CC(NC(=O)C(=O)NCCCn1ccnc1)c1ccccc1 (configuration not stated)
30	0.33	-0.05	CN(Cc1ccccc1)C(=O)c1cccc(N2C(=O)C3CC=CCC3C2=O)c1 (configuration not stated)
31	1.76	0.2	O=C(CSc1nn(-c2ccccc2)c(=S)s1)Nn1cnnc1
32	0.08	-0.04	O=C1Nc2cc(C(=O)N3CCN(Cc4ccccc4)CC3)ccc2SC1N1CCOCC1 (configuration not stated)
33	1.47	-0.01	NC(=O)COC(=O)[C@H](Cc1c[nH]c2ccccc12)NC(=O)c1ccc(F)cc1
34	3.67	-0.47	CCNCCC(=O)N1c2ccccc2Sc2ccc(C(F)(F)F)cc21
35	0.39	0.17	CC1(C)CC(=O)C2=C(C1)Nc1ccccc1[S@]2=O
36	0.96	-0.21	COc1ccc(N2C(=O)CSC23CCC(C(C)(C)C)CC3)cc1 (configuration not stated)
37	0.75	-0.41	O=C(NCc1cccnc1)c1cc2nc(-c3cccs3)cc(C(F)(F)Cl)n2n1
38	0.07	2.6	COc1ccc(CN(C(=O)c2ccco2)c2ccccc2)cc1
39	2.73	-0.19	COc1cc(/C=N/n2c(-c3cc(C)[nH]n3)n[nH]c2=S)cc(OC)c1OC
40	0.36	0.04	CCOCCCn1c(=S)[nH]c2cc(C(=O)NCc3ccc(F)cc3)ccc2c1=O

Brought forward from above: three compounds, then new ones.
item	KCNQ2 pot	KCNQ2 pot baseline	mol
38	0.07	2.6	COc1ccc(CN(C(=O)c2ccco2)c2ccccc2)cc1
39	2.73	-0.19	COc1cc(/C=N/n2c(-c3cc(C)[nH]n3)n[nH]c2=S)cc(OC)c1OC
40	0.36	0.04	CCOCCCn1c(=S)[nH]c2cc(C(=O)NCc3ccc(F)cc3)ccc2c1=O
41	0.01	0.01	Cc1ccc(N2CC(C(=O)NCCc3ccc(S(N)(=O)=O)cc3)CC2=O)cc1 (configuration not stated)
42	1.05	0.09	O=C(CCCN1C(=O)C2CC=CCC2C1=O)Nc1cccc(F)c1 (configuration not stated)
43	1.36	-0.66	C=CCN(c1ccccc1)S(=O)(=O)c1ccc2c(c1)NC(=O)C(C)C(=O)N2 (configuration not stated)
44	1.14	-0.19	O=C(CN1C(=O)COc2ccccc21)Nc1ccc2c(c1)OCCO2
45	0.78	-0.5	Cc1cccnc1NC(=O)c1cc2c(=O)oc3ccccc3c2s1
46	0.31	1.15	CCOC(=O)c1[nH]c2ccc(OC)cc2c1NC(=O)NC(C)C
47	3.76	-0.52	O=C(Nc1ccc(Cc2ccncc2)cc1)c1cccs1
48	0.03	-0.22	COc1ccc(S(=O)(=O)N2CCC(C(=O)Nc3ccc(OC)c(OC)c3)CC2)cc1C
49	0.12	-2.76	C=CCn1c(SCC(=O)NC(N)=O)nnc1-c1cc2c(s1)CCC(CC)C2 (configuration not stated)
50	0.13	1.12	Cc1ccc(SCCN2CCN(C)CCC2=O)cc1
51	0.22	-0.82	Cc1ccc(CNc2ncc(-c3ccccc3)n2C)o1
52	1.11	-0.89	CC(=O)c1c(C)[nH]c(C(=O)CN2C(=O)NC(C)(c3ccc4c(c3)OCO4)C2=O)c1C (configuration not stated)
53	0.22	-0.99	CNCc1ccccc1Sc1ccc(OC)cc1
54	0.01	-3.08	COc1ccc(-n2c(-c3cnccn3)n[nH]c2=S)cc1
55	0.01	0.93	CC(C)CC(CCc1ccccc1)OS(N)(=O)=O (configuration not stated)
56	1.31	2.16	CCn1cc(CN2CCC(n3nccc3NC(=O)c3ccc4c(c3)OCO4)CC2)c(C)n1

Next part; the last two above are carried over.
item	KCNQ2 pot	KCNQ2 pot baseline	mol
55	0.01	0.93	CC(C)CC(CCc1ccccc1)OS(N)(=O)=O (configuration not stated)
56	1.31	2.16	CCn1cc(CN2CCC(n3nccc3NC(=O)c3ccc4c(c3)OCO4)CC2)c(C)n1
57	0.63	-0.55	CCCCN(CC)CCNC(=S)Nc1ccc2nc(N3CCN(C)CC3)cc(C)c2c1
58	0.87	-0.18	CCc1cc(=O)oc2c(CNCc3ccccc3F)c(O)c(Cl)cc12
59	0.62	-0.06	NC(=Nc1ccccc1)NC(=O)c1nc(Cl)c(N)nc1N
60	0.2	0.83	COc1ccc(NS(=O)(=O)c2ccc(NC(=O)c3ccccc3Br)cc2)nn1
61	1.15	0.15	CCCc1nn(C)c(C(=O)Nc2ccc(CC)cc2)c1Cl
62	0.31	-1.37	Cc1cc(C)n(-c2cc(Cl)cc(Cl)c2)c(=O)c1C#N
63	1.73	-1.34	Cn1c(=O)c2c(nc(N/N=C/c3ccncc3)n2Cc2ccccc2)n(C)c1=O
64	0.1	0.11	CN(C)c1ncc(S(=O)(=O)c2ccccc2)c(N)n1
65	1.34	-0.23	Cc1nnc(N)s1
66	0.47	-0.47	CC(=O)Oc1c(Cl)c(N2CCOCC2)c(OC(C)=O)c2ccccc12
67	0.28	-0.4	CC(C)CNC(=O)c1ccc2c(c1)C(=O)N(C1CCCCC1)C2=O
68	0.88	0.52	Cc1ccc(OC(=O)CCS(=O)(=O)c2ccc(C)cc2)cc1
69	1.37	0.2	COc1cc2c(cc1OC)CN(Cc1cc(=O)n3c(-c4ccccc4)csc3n1)CC2
70	0.31	-0.1	CCN1CCN(c2ccc(S(=O)(=O)N(CC)CC)cc2[N+](=O)[O-])CC1
71	0.74	0.12	COc1ccc(C(=O)NCCSCc2ccc(C)cc2)cc1
72	0.29	0.53	C=CCn1c(SCC(=O)N2CCCC2)nc2scc(-c3cccs3)c2c1=O
73	1.59	0.8	Cc1nc(=O)c(-c2ccccc2)c(C)n1Cc1ccccc1
74	1.17	-0.39	CCCc1cc(=O)[nH]c(SC/C=C/c2ccccc2)n1
75	1.81	-0.9	CCn1cc(C(=O)NC(C)C2CC3CCC2C3)cn1 (configuration not stated)
76	0.95	0.02	CC(=O)N1CCc2c(sc(NC(=O)CS(=O)(=O)c3ccc(F)cc3)c2C#N)C1
77	0.34	-0.21	COc1ccc(Br)cc1/C=N/NC(=O)c1ccc(COc2ccc3c(c2)CCC3)o1
78	0.69	-1.56	CCOc1cc(NC(=S)NCCCN2CCOCC2)c(OCC)cc1NC(=O)c1ccccc1C
79	0.37	0.09	COc1ccc(Br)cc1CN1CCN(C(=O)c2ccc(F)cc2)CC1
80	0.01	0.21	Cn1c(N)c(C(=O)Nc2ccccc2)c(=O)[nH]c1=O

Overlap with the part before: six entries, followed by the next part.
item	KCNQ2 pot	KCNQ2 pot baseline	mol
75	1.81	-0.9	CCn1cc(C(=O)NC(C)C2CC3CCC2C3)cn1 (configuration not stated)
76	0.95	0.02	CC(=O)N1CCc2c(sc(NC(=O)CS(=O)(=O)c3ccc(F)cc3)c2C#N)C1
77	0.34	-0.21	COc1ccc(Br)cc1/C=N/NC(=O)c1ccc(COc2ccc3c(c2)CCC3)o1
78	0.69	-1.56	CCOc1cc(NC(=S)NCCCN2CCOCC2)c(OCC)cc1NC(=O)c1ccccc1C
79	0.37	0.09	COc1ccc(Br)cc1CN1CCN(C(=O)c2ccc(F)cc2)CC1
80	0.01	0.21	Cn1c(N)c(C(=O)Nc2ccccc2)c(=O)[nH]c1=O
81	0.02	1.32	Cc1ccsc1C1C(C#N)=C(N)Oc2n[nH]c(C)c21 (configuration not stated)
82	1.33	0.23	Cc1ccc(NC(=O)CSc2ccc3c(c2)OCCO3)c(O)c1
83	1.08	-0.04	CC(=O)c1ccc(NC(=O)N[C@@H](Cc2ccccc2)C(=O)O)cc1
84	1.8	-1.89	Cc1[nH]n(-c2ccc(Cl)cc2)c(=O)c1C=Nc1ccc(S(=O)(=O)N2CCOCC2)cc1
85	0.07	-0.13	CCC(NS(=O)(=O)c1ccc(OC)cc1)C(=O)NCCC1=CCCCC1 (configuration not stated)
86	0.89	1.75	O=C(c1ccc(S(=O)(=O)N2CCOCC2)cc1)N1CCN(c2ccc(F)cc2)CC1
87	1.39	-1.09	O=C(NCCCN1CCCCC1)C1CCCN(c2ncnc3c2nc2n3CCCCC2)C1 (configuration not stated)
88	1.27	0.51	O=C(CSc1nnnn1C1CCCC1)Nc1ccc(F)cc1
89	0.45	-0.36	Cc1ccc(SC(C)C(=O)NCc2ccc(F)cc2)cc1 (configuration not stated)
90	0.74	0.12	CCC(=O)Nc1ccc(C(=O)Nc2ccc(Br)cc2F)cc1
91	2	-2.25	Cc1[nH]n2c(=O)c3c(nc2c1-c1ccccc1)CCC3
92	2.03	-0.07	O=c1oc2ccccc2c(O)c1/C=C1\C=Nc2ccccc21
93	1.53	-0.05	Cc1cccc(S(=O)(=O)NNC(=O)Cc2cccn2C)c1
94	1.14	0.01	CC1C2CC(C(S(=O)(=O)N3CCOCC3)C2=O)C1(C)C (configuration not stated)
95	0.17	-0.53	Cc1cc([N+](=O)[O-])nn1CC(=O)Nc1ccc(F)cc1
96	0.35	2.03	Cc1ccc(S(=O)(=O)NCCN=C(CN2CCOCC2)NS(=O)(=O)c2ccc(C)cc2)cc1
97	1.68	0.66	CCNS(=O)(=O)c1ccc(CCC(=O)NCCC2=CCCCC2)cc1
98	0.96	1.71	Cc1oc(-c2ccccc2F)nc1CS(=O)CC(=O)NCCN1CCCCC1C (configuration not stated)
99	0.54	0.08	O=C(NCc1ccccc1)C1CCN(S(=O)(=O)c2ccc(Cl)cc2)CC1
100	0.1	-0.71	O=C(CCN1N=C(c2ccccc2)CCC1=O)NC1CCCC1
101	1.31	-0.74	Cc1ccc(C(=O)N/C(=C/c2cccs2)C(=O)NCC2CCCO2)cc1 (configuration not stated)
102	0.93	-2.14	COCCn1c(Cc2ccccc2)nnc1SCC(=O)NC(C)(C)C
103	0.97	-0.04	COc1ccccc1NC(=O)C1=C(C)Nc2ncnn2C1c1ccccc1C (configuration not stated)
104	0.1	0.42	O=C(c1csc(Nc2ccccc2Cl)n1)N1CCCC1
105	0.88	1.39	O=C1CS/C(=N/N=C2CCCC2)N1
106	1.42	0.22	CCCCNC(=O)/C=C/c1cccs1
107	1.25	-1.86	CCOc1ccc(-n2c(SCC(N)=O)nnc2-c2cccnc2)cc1
108	0.88	-0.5	Cc1cc(NC(=O)COc2cccc(C)c2C)no1
109	0.85	0	CCOC(=O)c1ccccc1NC(=O)Cn1cnc2c(cnn2-c2ccccc2)c1=O
110	0.92	0.17	CCCCCCNCc1cccc(Br)c1
111	1.43	0.66	CCOc1cc(CNc2ccc(O)cc2)ccc1OCc1ccc(Cl)cc1Cl
112	1.49	1.59	Nc1c(Sc2ccccc2)c(=O)[nH]c(=O)n1Cc1ccccc1
113	0.14	-0.63	Cc1ccc(-n2c(SCC(=O)Nc3cc(C)on3)nc3c(c2=O)SC(C)C3)cc1 (configuration not stated)
114	0.24	1.1	Nc1nonc1C(=O)NCCNCc1cc(Br)ccc1OCc1ccccc1F
115	1.5	-1.18	O=C(NC1CC2CCCC(C1)N2C(=O)Nc1ccc(Cl)c(C(F)(F)F)c1)C1CC1 (configuration not stated)
116	0.04	0.02	COc1ccc(OC)c(-c2csc(NC(=O)C3=NNC(=O)CC3)n2)c1
117	0.59	0.54	COC(=O)c1cnc(Oc2c(Cl)cc(N)cc2Cl)cc1C(F)(F)F

Source: PubChem
